Screens (PubChem)
AmpC inh no det: AmpC beta-lactamase inhibition, detergent-free assay; AmpC nitrocefin hydrolysis, absorbance 480 nm, no detergent; potencies from a single point are estimates; Potency, µM (doses to about 28.7 µM), without a hit: top-dose activity change, negative = inhibition; 71,000 tested, 1.8% active; AID 585; active = falling curve, for most hits resting on a single point; inconclusive = weak or doubtful change; inactive = flat or rising curve; note: % of control where 0% means no effect; about half of the hits show no inhibition at the top dose; a quarter of the inactives give rising signals
Target sequence (P00811 whole entry, looked up): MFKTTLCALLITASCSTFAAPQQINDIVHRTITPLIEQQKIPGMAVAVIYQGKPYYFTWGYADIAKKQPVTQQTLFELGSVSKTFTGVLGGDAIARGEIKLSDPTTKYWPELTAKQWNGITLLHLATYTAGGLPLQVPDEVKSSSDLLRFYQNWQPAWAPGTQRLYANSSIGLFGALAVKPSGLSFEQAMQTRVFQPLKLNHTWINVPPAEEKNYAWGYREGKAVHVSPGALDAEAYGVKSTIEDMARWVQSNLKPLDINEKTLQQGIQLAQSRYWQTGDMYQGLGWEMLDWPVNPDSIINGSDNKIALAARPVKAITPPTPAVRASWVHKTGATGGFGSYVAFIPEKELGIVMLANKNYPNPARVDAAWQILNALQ
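Enzyme, pH 7.0 phosphate. Compound titrations were pre-incubated with AmpC for 15 min at room temperature before nitrocefin (stock 800 uM) addition; product formation was recorded at 480 nm every 20 s for 4 min.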
* marks the source's active call; other numbers are inactive results; ? = inconclusive; [ ] = another dose, or the depositor's remark. Potency is the fitted concentration of half-maximal effect. Only part of the results is shown; the hit share may differ from the screen's.

SMILES	AmpC inh no det
C=CCn1c(NCc2cc(C)ccc2O)nc2ccccc21	-10.9%
CSc1ccc(C2Nc3ccccc3-c3cc(C)nn32)cc1 (stereo not drawn)	3.4%
O=C(NCCc1ccccc1)C1CCN(S(=O)(=O)c2cccc3nsnc23)CC1	-0.8%
Cc1ccccc1OCC(O)Cn1c(NCCN(C)C)nc2c1c(=O)n(C)c(=O)n2C (stereo not drawn)	49.1%
COc1ccc2oc(=O)c(C(=O)N3CCc4ccccc43)cc2c1	3.9%
CCOC(=O)Cc1c(C)nc2cc(-c3ccc(Cl)cc3)[nH]n2c1=O	-11.9%
O=C(c1ccc(-c2ccccc2)cc1)N1CCN(Cc2ccccn2)CC1	116.9%
CCC(C)NC(=O)C1c2ccccc2C(=O)N1Cc1cc(OC)ccc1OC (stereo not drawn)	1.3%
CCC(C)(C)N=C(NC#N)Nc1cccnc1	1.9%
CC(C)c1cccc(C(C)C)c1OCCn1ccnc1	36.9%
O=C(CN1C(=O)C2C3C=CC(C3)C2C1=O)NCC1COc2ccccc2O1 (stereo not drawn)	19.1%
CC1CCCCN1C(=O)Cn1cc(C(=O)c2ccco2)c2ccccc21 (stereo not drawn)	21.1%
CCOC(=O)c1cc2n(c1N)-c1ccccc1C2=O	-0.8%
CC1Cn2c(nnc2-c2cccc(Cl)c2)S1 (stereo not drawn)	1.1%
CSc1nsc(SCC(=O)N2CCCc3ccccc32)n1	2.0%
CCOC(=O)c1c(-c2ccc(C)o2)csc1NC(=O)CN1CCN(CC)CC1	92.1%
COc1ccccc1C(=O)N1CCN=C1SC	22.6%
CCOc1ccc(CN2C(=O)CCC2(C)C(=O)NCc2cccnc2)cc1 (stereo not drawn)	20.6%
CCCCCCC1CC(CSc2ncn[nH]2)OC1=O (stereo not drawn)	-2.2%
Cc1nc2nc(Cc3ccccc3)[nH]n2c(=O)c1Cc1ccccc1	-15.5%
COc1ccc(S(=O)(=O)N(C)c2ccc(C(=O)N3CCOCC3)cc2)cc1OC	33.3%
COc1ccc(NS(=O)(=O)c2ccc3c(c2)CCC(=O)N3)c(OC)c1	4.8%
COc1cc(-c2nc(S(=O)(=O)c3ccc(C)cc3)c(N(C)C)o2)cc(OC)c1OC	107.1%
c1n[nH]c(NCc2ccc3c(c2)OCO3)n1	3.1%
C=CCNc1nc(N2CCCC2)nc2ccccc12	-10.5%

Molecules from the list above containing a halogen (two):
SMILES	AmpC inh no det
CCOC(=O)Cc1c(C)nc2cc(-c3ccc(Cl)cc3)[nH]n2c1=O	-11.9%
CC1Cn2c(nnc2-c2cccc(Cl)c2)S1 (stereo not drawn)	1.1%

A draw from above in order of heavy-atom count, rising:
SMILES	AmpC inh no det
CC(C)c1cccc(C(C)C)c1OCCn1ccnc1	36.9%
COc1ccc(NS(=O)(=O)c2ccc3c(c2)CCC(=O)N3)c(OC)c1	4.8%
O=C(NCCc1ccccc1)C1CCN(S(=O)(=O)c2cccc3nsnc23)CC1	-0.8%

Next part.
SMILES	AmpC inh no det
COc1ccc(N(CC(=O)O)S(=O)(=O)c2cccnc2)cc1	-8.4%
COc1ccc(-c2noc(C3CCCN(C(=O)CCc4ccccc4)C3)n2)cc1 (stereo not drawn)	77.2%
Cc1ccnc(SCCn2c(N3CCOCC3)nc3c2c(=O)n(C)c(=O)n3C)n1	-5.5%
CN(C)S(=O)(=O)c1ccc(S(=O)(=O)N(CC(=O)Nc2ccccc2)Cc2ccco2)cc1	-14.0%
COCCC(=O)NC12CC3CC(CC(C3)C1)C2	8.6%
COc1ccccc1N1CCN(C(c2cccs2)C(C)NS(=O)(=O)c2ccccc2)CC1 (stereo not drawn)	11.5%
Cn1c(=O)c2c(nc(SCC(=O)c3cccs3)n2Cc2ccc(F)cc2)n(C)c1=O	52.2%
N#CCCn1c(=O)c(CCc2ccccc2)nc2cnc(OCc3ccccc3)nc21	12.0%
Cc1nc(N=Nc2cc(S(=O)(=O)O)ccc2S(=O)(=O)O)c(COP(=O)(O)O)c(C=O)c1O	-2.9%
O=C(NCc1ccco1)c1cc2n(n1)C(C(F)(F)F)CC(c1ccc(Br)cc1)N2 (stereo not drawn)	-24.2%
COc1cc(C(=O)NCCC(=O)NCc2ccc3c(c2)OCO3)cc(OC)c1OC	4.1%
Cn1c(SCc2ccc(F)cc2)nnc1-c1ccccn1	2.7%
COc1cc(OC)cc(C(=O)Nc2cccc(N3CCCC3)c2)c1	-12.8%
Clc1cccc(-c2cc3nc4c(c(N5CCOCC5)n3n2)CCCC4)c1	81.9%
Cc1ccccc1-n1nc2c(c1NC(=O)c1cc3ccccc3oc1=O)CS(=O)(=O)C2	33.9%
CCOc1ccccc1N1CCN(S(=O)(=O)c2ccc(F)c(F)c2)CC1	18.2%
N#CC1=C2C=CC=CN2CC1=O	-5.4%
COC(=O)c1ccc(OCC2c3cc(OC)c(OC)cc3CCN2C(=O)C2CC2)cc1 (stereo not drawn)	104.9%
COCCn1c(SCc2ccc(C(=O)OC)o2)nc2ccccc2c1=O	66.6%
Cc1cccc2c1N(CC(=O)OC(C)C)C(=O)C2=O	1.8%
CCCCN(CC)C(=O)CSc1cc(=O)n(C)c2ccccc12	64.0%
O=C(c1cc2nc(-c3ccccc3)cc(-c3ccccc3)n2n1)N1CCC2(CC1)OCCO2	104.0%
COc1ccc(N(C)C(=O)CCS(=O)(=O)c2cccc3nonc23)c(OC)c1	28.3%
COc1cc(NS(=O)(=O)c2ccc(C)cc2C)cc(OC)c1OC	3.9%
COCCNc1nc(-c2ccoc2)nc2ccccc12	50.2%
(continued)
SMILES	AmpC inh no det
Cc1ccc(S(=O)(=O)NCC(C)NS(=O)(=O)c2ccc(C)cc2)cc1 (stereo not drawn)	-12.3%
CS(=O)(=O)N1CCN(c2nc3ccccc3s2)CC1	3.3%
C(=C\CSc1ncn[nH]1)/CSc1ncn[nH]1	-2.9%
O=C(CN1CCOCC1)Nc1ccc(NC(=O)CN2CCOCC2)c(Cl)c1	11.8%
COc1cccc(C2=NOC(C(=O)N3CCN(C(=O)c4ccco4)CC3)C2)c1 (stereo not drawn)	2.51µM*[single pt active]
Cc1ccc(NC(=O)COC(=O)C2=COCCO2)cc1	2.5%
O=C(CSc1oc(-c2ccccc2)nc1S(=O)(=O)c1ccc(F)cc1)NCC1CCCO1 (stereo not drawn)	29.3%
Cn1c(CN2CCOCC2)c(C#N)c2ccccc21	10.7%
CN(c1ccc(C(=O)NCc2ccc3c(c2)OCO3)cc1)S(C)(=O)=O	1.3%
CSc1nnc(-c2ccccc2Cl)n1N	-2.5%
CCS(=O)(=O)N1CCCC(C(=O)NCCN2CCC(Cc3ccccc3)CC2)C1 (stereo not drawn)	9.5%
CCOC(=O)CSc1nnc(-c2ccco2)n1-c1ccc(C)cc1	43.3%
Nc1nnc(SCC(=O)NCc2ccc3c(c2)OCO3)s1	-13.6%
O=C(CC1Nc2ccccc2NC1=O)NCc1cccnc1 (stereo not drawn)	-5.3%
COc1cc2[nH]c(=S)nc(NCC3CCCO3)c2cc1OC (stereo not drawn)	15.4%
O=C(CSC1=NCCS1)N1CCc2ccccc21	1.7%
OC(CN1CCN(c2ccccc2)CC1)c1c[nH]c2ccccc12 (stereo not drawn)	7.4%
Cc1ccc(S(=O)(=O)N2CCN(C(=O)CSc3nnc(-c4ccco4)o3)CC2)cc1	37.5%
O=C(c1c(O)c2ccc(Cl)cc2[nH]c1=O)C1CC1	15.4%
CCC/C=C(\CCC)C(NC(=O)Cc1ccccc1)c1ccc(C(=O)OC)cc1 (stereo not drawn)	-9.1%
CC(NC(=O)c1csc2ccccc12)C1CCCO1 (stereo not drawn)	-3.9%
CCNc1nc(NC(C)(C)C)nc(N(C#N)CC)n1	29.1%
COc1ccc(CC(CC(=O)O)C(=O)Nc2ccccc2)cc1 (stereo not drawn)	-2.4%
COc1ccc(/C=N/n2cnnc2)cc1COc1ccccn1	-1.2%
O=[N+]([O-])c1ccc(Cl)c(CNc2ncnc3c2ncn3[C@@H]2CCCCO2)c1	12.5%[5.75 µM]
Carrying on:
SMILES	AmpC inh no det
CNc1ncncc1-c1ccccc1CN(C)C	-7.2%
CCCCSc1nnc(-c2cc(Br)ccc2N)c(=O)[nH]1	?
O=C(OCc1nnc(-c2ccccc2)o1)c1ccc2c(c1)OCO2	18.4%
Cc1ccccc1NS(=O)(=O)c1ccc2[nH]cc(C(=O)NCCCN3CCOCC3)c(=O)c2c1	69.9%
CN(CC(=O)Nc1sccc1C#N)C1CCCCC1	?
O=C(NCc1ccncc1)Nc1ccc(F)cc1	3.9%
COc1cccc(Nc2ncc3nc(-c4cn(C)c5ccccc45)c(=O)n(CCC#N)c3n2)c1	-9.8%
O=C(NCCCO)c1nc2ccccc2s1	-10.9%
COc1cccc(S(=O)(=O)NCc2ccc(C(=O)NCc3ccco3)cc2)c1	?
Cc1noc(C)c1COC(=O)c1cccc(S(=O)(=O)N2c3ccccc3CC2C)c1 (stereo not drawn)	50.6%
CC(C)CCNC(=O)C1CCN(c2nc3ccccc3o2)CC1	48.1%
O=C(Nc1cccnc1)c1ccccc1Oc1ccccc1	9.7%
Cc1ccc(-c2nc(CS(=O)CC(=O)NCCN3CCOCC3)c(C)o2)cc1 (stereo not drawn)	3.98µM*[single pt active]
c1ccc(-c2noc(CN3CCN(c4ccccc4)CC3)n2)cc1	49.7%
O=C(c1nnc(Cc2ccc(Cl)cc2)o1)N1CCc2ccccc2C1	28.1%
COc1ccc(O)c(-c2c(-c3ccc(Cl)cc3)n[nH]c2C)c1	1.7%
CCOc1ccc2cc(C#N)c(SCC(=O)N3CCCC3)nc2c1	24.6%
COc1ccc(Cl)cc1NC(=O)c1cnc2n(c1=O)CCS2	-10.2%
FC(F)(F)c1cc(CO[C@H]2CCCN[C@H]2c2ccccc2)cc(C(F)(F)F)c1	74.8%
O=C(O)CSc1ccccc1C(=O)O	2.2%[5.75 µM]
C=CCNC(=O)CNS(=O)(=O)c1ccc(F)cc1	0.3%
Clc1ccc2c(c1)c1ccccc1n2CN1CCOCC1	80.6%
O=C1Nc2ccccc2C1=Nc1ccc(S(=O)(=O)Nc2nccs2)cc1	-4.2%[5.75 µM]
CCOC(=O)c1c(C)[nH]c(C(=O)COC(=O)C2CC(=O)N(Cc3ccccc3)C2)c1C (stereo not drawn)	120.7%
Cc1ccc(C(=O)OCc2cc3ccccc3[nH]c2=O)cc1	43.4%

The last 3 entries of the section above are carried over, then new ones follow:
SMILES	AmpC inh no det
O=C1Nc2ccccc2C1=Nc1ccc(S(=O)(=O)Nc2nccs2)cc1	-4.2%[5.75 µM]
CCOC(=O)c1c(C)[nH]c(C(=O)COC(=O)C2CC(=O)N(Cc3ccccc3)C2)c1C (stereo not drawn)	120.7%
Cc1ccc(C(=O)OCc2cc3ccccc3[nH]c2=O)cc1	43.4%
COC(=O)c1cc(S(=O)(=O)NC2CCN(Cc3ccccc3)CC2)cn1C	13.1%
N#Cc1c(N)nc(SC2CCCCC2=O)c(C#N)c1-c1ccco1 (stereo not drawn)	-7.9%
CC(C)NP(=O)(NC(C)C)OP(=O)(NC(C)C)NC(C)C	1.5%
Cc1n[nH]c(=S)n(/N=C/c2ccccn2)c1=O	-5.7%
CCOC(=O)N1CCC(N2Cc3cccc(C(=O)N4CCN(C5CCCCC5)CC4)c3C2=O)CC1	65.5%
Cc1cc(NC(=O)c2cc(S(=O)(=O)N3CCCCC3)ccc2C)n(-c2ccccn2)n1	72.4%
O=C(O)[C@H]1CCN1	1.2%
COc1ccc(-n2cnnc2SCc2ncc(-c3ccccc3)o2)cc1	69.3%
CCOc1ccc(Cc2nnc(N)s2)cc1OCC	2.6%
CCCS(=O)(=O)N1CCC(C(=O)NCCCN(CC)c2cccc(C)c2)CC1	35.3%
Cn1c(C(=O)NCc2cccs2)cc2c(=O)n(C)c3ccccc3c21	3.98µM*[single pt active]
COc1ccc(N(C(=O)Cn2nnc3ccccc32)C(C(=O)NCc2ccco2)c2ccc(C)o2)cc1 (stereo not drawn)	20.6%
Cc1cccc(Br)c1	-4.8%
COc1ncc2nc(C)c(=O)n(Cc3cccs3)c2n1	9.7%
CSc1nc2ccccc2n1CC(=O)Nc1c(C)n(C)n(-c2ccccc2)c1=O	-3.1%
Cc1onc(-c2ccccc2)c1C(=O)Nc1nc(-c2ccc(F)c(F)c2)cs1	?
COC(=O)C1(CC(C)C)C=C2C(=C(C(C)C)C(=O)C2C)CN1 (stereo not drawn)	37.8%
O=C(NCCCN1CCN(c2cccc(Cl)c2)CC1)C1CCC(=O)N1Cc1ccccc1Cl (stereo not drawn)	123.7%
COc1ccccc1-n1c(SCC(=O)N2CCOCC2)nc(O)c(Cc2ccccc2)c1=O	-9.0%
Cc1nc2sc3c(c2c2nc(-c4ccco4)nn12)CCCC3	50.8%
COc1ccccc1CN1CC[C@@]2(CCCN(C(=O)c3cccn3C)C2)C1	103.2%
O=C(NC1CCCC1)C1CCCN(S(=O)(=O)c2ccc(-n3cnnn3)cc2)C1 (stereo not drawn)	-10.9%
Cc1ccc(CNC(=O)Cn2ccc3ccccc3c2=O)o1	-8.7%
CCOC(=O)C(C(C)=O)c1c(Br)c(O)c(O)c2c(C(=O)c3ccc(C)cc3)coc12 (stereo not drawn)	6.31µM*
NC(=O)c1cccc2c(=O)oc3ccccc3c12	-5.0%
Nn1c(SCC(=O)Nc2ccc(Oc3ccccc3)cc2)nnc1C1CC1	12.1%
CCOc1ncccc1C(=O)OCc1ccc(C(=O)OC)o1	6.8%
COc1ccc(C[C@H](O)CN2CCOCC2)cc1	7.7%[5.75 µM]

A different layout for part of the listing above:
> Cn1c(C(=O)NCc2cccs2)cc2c(=O)n(C)c3ccccc3c21
  AmpC inh no det = 3.98µM*[single pt active]
> COc1ccc(N(C(=O)Cn2nnc3ccccc32)C(C(=O)NCc2ccco2)c2ccc(C)o2)cc1 (stereo not drawn)
  AmpC inh no det = 20.6%
> Cc1cccc(Br)c1
  AmpC inh no det = -4.8%
> COc1ncc2nc(C)c(=O)n(Cc3cccs3)c2n1
  AmpC inh no det = 9.7%
